Rango complex inh: inhibitors of Rango-importin beta complex formation; 340,000 tested, 0.031% active; Potency, µM (series often up to 92.2 µM), for inactives: top-dose inhibition of complex formation; AID 540263; Rango CFP/YFP FRET sensor + importin beta, 45 min; active = rising FRET ratio curve, often small or poorly fitted; inconclusive = mostly compound fluorescence or quenching in the first reads; inactive = flat curves in all reads;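 further: potency means the concentration at half of the fitted maximal effect; 0% = DMSO wells and 100% = buffer wells lacking importin beta; nearly all actives have a fitted effect of over 15% in size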
Target sequence (Q14974 whole entry, looked up): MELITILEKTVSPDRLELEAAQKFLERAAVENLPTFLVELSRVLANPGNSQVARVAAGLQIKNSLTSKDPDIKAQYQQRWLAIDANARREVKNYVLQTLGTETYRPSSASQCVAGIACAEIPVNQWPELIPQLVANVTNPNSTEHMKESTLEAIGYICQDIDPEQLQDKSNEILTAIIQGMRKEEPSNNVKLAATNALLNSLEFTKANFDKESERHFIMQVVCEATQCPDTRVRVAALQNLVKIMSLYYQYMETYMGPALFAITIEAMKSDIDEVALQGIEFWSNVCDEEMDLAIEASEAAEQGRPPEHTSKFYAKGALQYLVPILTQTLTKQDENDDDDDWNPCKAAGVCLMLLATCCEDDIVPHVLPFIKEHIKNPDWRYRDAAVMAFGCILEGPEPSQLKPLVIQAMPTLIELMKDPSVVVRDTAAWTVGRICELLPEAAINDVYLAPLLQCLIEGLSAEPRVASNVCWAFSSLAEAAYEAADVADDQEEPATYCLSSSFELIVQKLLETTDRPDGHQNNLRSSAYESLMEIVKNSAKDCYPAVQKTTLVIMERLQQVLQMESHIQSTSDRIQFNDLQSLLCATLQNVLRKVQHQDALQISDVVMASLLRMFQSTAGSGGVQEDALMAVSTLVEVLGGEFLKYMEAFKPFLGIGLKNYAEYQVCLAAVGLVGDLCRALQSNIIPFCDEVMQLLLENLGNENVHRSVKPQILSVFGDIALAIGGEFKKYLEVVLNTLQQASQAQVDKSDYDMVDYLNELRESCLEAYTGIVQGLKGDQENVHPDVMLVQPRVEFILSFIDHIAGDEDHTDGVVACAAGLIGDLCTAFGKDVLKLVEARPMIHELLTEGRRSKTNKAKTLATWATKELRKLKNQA
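FRET biosensor Rango (snurportin 1 IBB between N-terminal EYFP and C-terminal Cerulean), 50 nM in PBS/1 mM DTT/0.02% Tween-20/0.1% BSA, preincubated 5 min RT with compound; 0.125 microM importin beta added, 45 min RT, CFP/YFP FRET ratio read.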
miR-21 reporter: miR-21 reporter, rising signal | HeLa miR-21 FLuc reporter, luciferase, 48 h | Potency, µM (series often up to 38.3 µM), inactives show at the highest dose reporter change, positive = more light | 340,000 tested, under 10 active | AID 2288; active = well fitted rising curve with a large enough effect; inconclusive = small, poorly fitted or top-dose-only effect; inactive = no such curve, though single readings can be large or run the other way;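 further: % of control where 0% means no effect; miR-21 action dims this reporter so a rising signal means less miR-21 action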
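HeLa cells endogenously expressing miR-21, stably carrying CMV-driven firefly luciferase with a downstream miR-21 binding site, 2000 cells/well. Titrations up to approximately 40 uM, 48 hours; luciferase luminescence read.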
GLA inh pH 4.5: alpha-galactosidase A (human) inhibition, pH 4.5 | P06280 | purified enzyme, 4-MU-alpha-Gal fluorescence, pH 4.5 | activity change, negative = inhibition, % at 105 µM | 230,000 tested, under 10 active; inconclusive = small, poorly fitted or top-dose-only inhibition, or a rising curve; inactive = flat fitted curve, though single readings scatter; no compound was filed as active;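 further: 0% = full activity with enzyme and -100% = basal without enzyme; dose as in the result columns while the protocol names 77 µM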
Rango dissoc inh: prevents RanGTP from dissociating the Rango-importin beta complex; O95149+P62826; Biochemical FRET Rango-importin beta, RanGTP-induced dissociation; Potency, µM (highest dose often 46.1 µM), for inactives: at the top dose activity change, negative = inhibition; 340,000 tested, 0.071% active; AID 540253; active means falling FRET ratio curve, often poorly fitted, with flat reads before Ran was added; inconclusive means other falling curves, or compound fluorescence or quenching; inactive means flat or rising ratio curve;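 further: potency means the concentration at half of the fitted maximal effect; % of control where 0% means no effect; nearly all actives have a fitted effect of over 45% in size; -100% = wells without RanGTP and RCC1; the record marks most hits as doubtful in a second field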
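FRET read at 45 min, room temperature: inhibitors block the CFP/YFP signal rise when RanGTP (0.6 uM Ran, 2 mM GTP, 0.2 uM RCC1) frees Rango (0.1 uM) from importin beta (0.25 uM). Pre-read after 5 min compound exposure flags interference.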
* = called active by the depositor; u = inconclusive; x = no result given. Only part of the results is shown (hit frequency here may not be typical).

Value order: Rango complex inh | miR-21 reporter | GLA inh pH 4.5 | Rango dissoc inh
1. Cc1ccc(NC(=O)CN(C)S(=O)(=O)c2cccc3nsnc23)cc1
  0.2% | -1% | 5 | -3%
2. CSc1ncccc1C(=O)OCC(=O)c1ccccc1
  4.6% | -7% | 1 | -7%
3. Cc1ccc(C(=O)OCc2cc(=O)n3c(C)csc3n2)s1
  0.2% | x | x | -7%
4. CCOC(=O)N1CCC(NS(=O)(=O)c2cc(Br)cnc2N)CC1
  u | -1% | 2 | 15%
5. CCOc1ccc(CN(C)CC(O)COC(c2ccc(OC)cc2)c2ccc(OC)cc2)cc1 (centres undefined)
  -4.2% | 14% | x | -11%
6. O=[N+]([O-])c1cc(C(F)(F)F)cc([N+](=O)[O-])c1N1CCCNCC1
  0.0% | 1% | 2 | 31%
7. O=C(c1cccc(-c2ccc(O)cc2)c1)N1CCOCC1
  -3.5% | -31% | 3 | 21%
8. Cc1cc(C)cc(N=C2NC(=O)/C(=C/c3cccs3)S2)c1
  u | -15% | -8 | 31%
9. COc1ccc(Cl)cc1NC(=O)COC(=O)CCc1cc(OC)c(OC)c(OC)c1
  -5.0% | 5% | x | 10%
10. Cc1ccc(S(=O)(=O)NCC(=O)N(c2ccccc2)C(C(=O)NCc2ccccc2)c2ccco2)cc1 (centres undefined)
  1.6% | 10% | 1 | 7%
11. CSc1nc2sc(-c3ccccc3)cc2c(=O)n1N
  0.2% | -43% | -5 | 0%
12. CCN(C(=S)NCc1ccccc1)c1ccccc1
  -0.1% | 0% | 4 | 2%
13. O=C(Nc1nnc(-c2ccc(Cl)cc2)o1)c1cccc(N2C(=O)CCC2=O)c1
  0.2% | -13% | 4 | 9%
14. O=C(Nn1cc(C(=O)Nc2ccc(F)cc2F)c2ccccc2c1=O)c1cnccn1
  -5.3% | 19% | 4 | -2%
15. Cc1ccc(NC(=O)C(C)SCc2nc3sc4c(c3c(=O)[nH]2)CCCC4)nc1 (centres undefined)
  u | 0% | x | -22%
16. Cc1cc(C(=O)Cn2nc(C(=O)O)c3ccccc3c2=O)c(C)n1-c1cccc(C(F)(F)F)c1
  -0.6% | 0% | -6 | -2%
17. CCOc1c(Br)cc(CNc2ccc(N3CCOCC3)cc2)cc1OC
  0.3% | 14% | -4 | -13%
18. CC(C)(C#N)NC(=O)c1ccco1
  0.9% | -3% | -1 | 1%
19. COc1ccc(C)cc1S(=O)(=O)N1CCC(C)CC1
  2.6% | -5% | -4 | 11%
20. CCOC(=O)N1CCN(C(=O)c2c(-c3ccccc3)noc2C)CC1
  u | -2% | 4 | 18%
21. CC1(C)CC(=O)C=C(Nc2ccc(Br)cc2F)C1
  -2.0% | -4% | x | 0%
22. COc1ccccc1C(=O)COC(=O)CNS(=O)(=O)c1ccc(C)cc1
  -6.7% | 0% | -4 | 26%
23. Cc1occc1-c1nnc(SCC(=O)Nc2ccc3c(c2)OCO3)n1CC1CCCO1 (centres undefined)
  -0.1% | -1% | -2 | 12%
24. Cc1cccc(CCN(CC(=O)NC(C)(C)C)C(=O)c2csnn2)c1
  4.1% | 0% | 11 | 2%
25. CCOc1cc(-c2noc(-c3cccnc3)n2)ccc1OC
  -0.5% | -13% | -10 | 0%
26. CCC(=O)c1ccc(OCC(=O)OCC(=O)c2cc(C)n(C3CC3)c2C)cc1
  -1.3% | x | x | -12%
27. O=c1c2ccccc2nc(-c2ccccc2)n1O
  0.4% | x | x | 17%
28. COc1ccc2[nH]cc(CCNC(=O)Cc3ccc(Cl)cc3)c2c1
  -0.6% | -1% | x | 2%
29. CC(=O)Nc1nc(SCCCc2ccccc2)n[nH]1
  4.9% | -28% | 3 | 0%
30. O=C(Nc1cc(C(F)(F)F)ccc1N1CCOCC1)c1ccc[n+]([O-])c1
  4.2% | -1% | 3 | 0%
31. CSc1ccc(NC(=O)N2CCC(C(=O)c3ccc(F)cc3)CC2)cc1
  3.6% | 10% | x | 4%
32. Cc1cc(NS(=O)(=O)c2ccc(NC(=O)/C=C/c3ccccc3Cl)cc2)no1
  -2.4% | -14% | x | 5%
33. COCCNC(=O)C(c1ccc(C)o1)N(C(=O)C(=O)NC1CCCCC1)c1ccc(F)cc1 (centres undefined)
  0.9% | -3% | 3 | -15%
34. CC(C)NC(=O)Cn1c(=O)cnc2ccccc21
  -4.2% | -5% | 4 | 2%
35. Cn1c(CCNC(=O)OC(C)(C)C)n[nH]c1=S
  0.5% | -6% | 2 | 2%
36. CCOc1ccc(Cc2nc(-c3nonc3N)no2)cc1OCC
  7.8% | -4% | -1 | 6%
37. CC12CCC(=O)N1C(C(=O)Nc1nnc(SCc3ccccc3)s1)CS2 (centres undefined)
  0.7% | x | x | 18%
38. O=C(NC1CCCCC1)c1noc2c1CCCCC2
  0.2% | -46% | 1 | 4%
39. CS(=O)(=O)c1ccc(NC(=O)c2cc3c(cc2Cl)N2CCCCCC2=NS3(=O)=O)cc1
  0.8% | x | x | -4%
40. COCCn1c(SCC(=O)Nc2nnc(C)s2)nnc1-c1ccco1
  -1.3% | -3% | -1 | -10%
41. NS(=O)(=O)c1ccc(NC(=O)CSc2nc3ccccc3c(=O)n2Cc2ccncc2)cc1
  2.1% | x | x | -2%
42. CN(CC(=O)Nc1ccc(F)cc1)C(=O)COC(=O)CSc1ccc(F)cc1
  5.1% | x | x | 16%
43. COC(=O)CSc1nnc(-c2ccc(S(=O)(=O)N3CCCC3)cc2)n1C
  2.2% | 4% | 0 | 8%
44. O=C1CCN(Cc2ccccc2)C=C1c1ccc(Br)cc1
  -0.3% | x | x | 5%
45. CC1(C)Cc2c(sc3nc(-c4ccccc4)n(N)c(=O)c23)CO1
  2.8% | -23% | 9 | -5%
46. O=C(Oc1ccc(/C=N/NC(=O)c2ccccn2)cc1)c1ccc(Br)cc1
  2.7% | x | x | -7%
47. CCCCOc1ccc(S(=O)(=O)Nc2ccc(NC(C)=O)cc2)cc1
  0.2% | 4% | -6 | 0%
48. CCCn1nnnc1-c1cc(Cl)cc(Cl)c1
  4.4% | -5% | 6 | -2%
49. CN(Cc1cccc(F)c1)C(=O)c1cccc(S(=O)(=O)N2CCN(Cc3ccccc3)CC2)c1
  -0.6% | 4% | x | 1%
50. O=C1Nc2ccccc2C(=O)C1(Cl)Cc1ccccc1 (centres undefined)
  -2.5% | 8% | -6 | 18%
51. FC(F)(F)c1ccccc1NC(=S)N1CCc2ccccc2C1
  0.7% | 24% | 6 | 26%
52. Cc1ccc(C2NC(=O)NC3=C2CCc2ccccc23)cc1 (centres undefined)
  3.0% | -50% | 11 | -19%
53. COc1ccc(CCC(=O)N2CCN(S(=O)(=O)c3cccc(Cl)c3)CC2)cc1
  -5.1% | x | x | -3%
54. Cc1ccccc1C(=O)N1[C@@H](C(C)C)COc2cc(Br)ccc2S1(=O)=O
  -0.1% | x | x | 18%
55. CCCS(=O)(=O)N1CCCC(C(=O)NCCN2CCC(Cc3ccccc3)CC2)C1 (centres undefined)
  -1.5% | -2% | -7 | -4%
56. NS(=O)(=O)c1ccc(CCNC(=O)CSc2nc3ccccc3c(=O)n2CCC(=O)N2CCCCC2)cc1
  -0.4% | 10% | 1 | 3%
57. CCC(=O)c1ccccc1OCC(=O)Nc1c(C)cccc1C
  0.4% | -1% | -5 | 7%
58. O=c1c(/C=C(\O)c2ccccc2)nc2ccccc2n1-c1ccccc1
  u | -18% | -6 | u
59. Cc1ccc(NC(=O)C=NOCC(=O)Nc2cc(C)cc(C)c2)cc1
  -0.5% | x | x | 2%
60. O=C(COC(=O)c1ccc(O)cc1)NCCC1=CCCCC1
  3.3% | -6% | 7 | -15%

New compounds follow:
Value order: Rango complex inh | miR-21 reporter | GLA inh pH 4.5 | Rango dissoc inh
61. CCCCCCn1cnc2c(c1=O)c1nc3ccccc3nc1n2Cc1cccs1
  -0.4% | -4% | -4 | 1%
62. CCOC(=O)N1CCN(c2ccc(C(=O)c3cccc(F)c3)cc2)CC1
  u | 9% | -17 | 3%
63. O=C(O)CSc1nnc(-c2ccc(Cl)cc2Cl)n1-c1ccc(Br)cc1
  1.1% | -3% | x | 8%
64. O=C(O)c1cc([N+](=O)[O-])c(NCc2cccnc2)c([N+](=O)[O-])c1
  4.3% | -2% | 0 | -3%
65. COc1cc2c(cc1OC)CN(C(=O)C1CCCN1S(=O)(=O)c1ccc(F)cc1)CC2 (centres undefined)
  -0.2% | -1% | x | 23%
66. COc1ccc(C(=O)NC(=S)NC(C)c2ccccc2)cc1 (centres undefined)
  -2.2% | x | x | -4%
67. O=C(c1ccc([N+](=O)[O-])o1)N1CCN(c2nc3c(F)cc(F)cc3s2)CC1
  3.9% | x | x | -1%
68. CC(C)(C)CN1C(=O)C(=O)NC[C@@H]1Cc1ccc(O)cc1
  -0.2% | 4% | 1 | -11%
69. O=C(CNC(=O)c1cccs1)N/N=C/c1ccco1
  -0.6% | -6% | 0 | -6%
70. CCOC(=O)N1CCN(C(=O)Cn2ncc3ccccc32)CC1
  1.0% | -9% | 1 | 5%
71. O=C(NNS(=O)(=O)c1ccc([N+](=O)[O-])cc1)c1ccncc1
  3.9% | -1% | x | 0%
72. O=C(N/N=C/c1ccncc1)c1nc(-c2ccccc2)n2c1CCCCC2
  -2.4% | -15% | -5 | -5%
73. O=C(NCc1ccc(Cl)cc1)C1=Cc2cc(Cl)ccc2OC1
  -2.8% | 1% | -13 | 10%
74. COc1ccc(C)cc1NC(=O)NCc1ccccc1F
  5.2% | -16% | -3 | 3%
75. CC(=O)Nc1ccc(C(=O)CSc2nc3ccccc3n2CC(=O)N2CCCC2)cc1
  0.1% | -4% | 2 | 14%
76. Cc1c(N=CC=Nc2c(C)n(C)n(-c3ccccc3)c2=O)c(=O)n(-c2ccccc2)n1C
  x | -6% | 8 | x
77. CN(Cc1ccccc1)c1ccc(C(CC(N)=O)NC(=O)Cc2ccc(Br)cc2)cc1[N+](=O)[O-] (centres undefined)
  -1.7% | 2% | 7 | 33%
78. COc1ccc(NC(=O)c2nc[nH]c2C(=O)N[C@@H](C)c2ccccc2)cc1
  -2.5% | 6% | 6 | 7%
79. COc1ccc(CN2CCSc3sccc3C2=O)cc1
  0.9% | -8% | x | 14%
80. CCCN1C2=NS(=O)(=O)CCN2c2ccccc21
  -0.5% | -5% | -12 | 0%
81. CCN=C1NN=C(c2ccc(C)cc2)CS1
  u | -29% | 12 | 1%
82. Cc1nc2ccc(NC(=O)c3oc4ccc(F)cc4c3C)cc2s1
  u | x | x | -1%
83. Cc1cc(C)cc(N(CC(=O)Nc2ccccc2)C2=NC3CS(=O)(=O)CC3S2)c1 (centres undefined)
  2.2% | 20% | 6 | -4%
84. CCOC1OC(=O)C(Cl)=C1Nc1ccccc1C (centres undefined)
  2.9% | -10% | -3 | -10%
85. N#CCn1cc(/C=N/NC(=O)c2cc3c(ccc4ccccc43)o2)c2ccccc21
  u | 10% | 6 | -22%

High-throughput results: PubChem, National Center for Advancing Translational Sciences (NCATS)
